Bioassay records deposited in PubChem by several laboratories.
UUG fidelity – alters start codon recognition fidelity in yeast | S. cerevisiae UUG-firefly luciferase reporter, luminescence/redox ratio | AID 602363 | actives 0.13% (n = 350,000) | activity score, % at 18.7 µM;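 active = replicate mean at a twofold rise or more, about +100% in these data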;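 note: firefly luciferase made from a UUG start codon reports start codon fidelity; reporter light over untreated wells divided by growth signal over untreated wells; some hits fall short of that in this replicate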
eIF4H inh – inhibitors of RNA binding by human eIF4H; eIF4H fluorescence polarization binding assay; inhibition, % at 35 µM; actives 0.94% (n = 290,000); AID 2012;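 active = 50% or more with normal probe brightness, or confirmed in later tests; inconclusive = above 50% with abnormal brightness, or retests that disagree; inactive = below 50% or failed in later tests; about a fifth of its hits are not listed in these tables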;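 note: calls also rest on retests at 20 µM and on dose response follow-up; 0% = protein and probe with vehicle and 100% = probe without protein; strong numbers were not always called active; many hits fall short of the cut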
Rce1 inhib – inhibitors of yeast Ras-converting enzyme. actives 0.27% (n = 290,000). calls only. Q03530. yeast membranes, quenched prenylated peptide cleavage fluorescence;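 active = fall in fluorescence gain of 50% or more versus controls, with final raw signal at or below 3038400; inconclusive = same 50% fall but final raw signal above 3038400; inactive = fall in fluorescence gain under 50%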;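 note: plate controls were neutral control wells for no effect and wells lacking membranes for full effect; tested at 10 µM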
Target sequence (Q03530 whole entry, looked up): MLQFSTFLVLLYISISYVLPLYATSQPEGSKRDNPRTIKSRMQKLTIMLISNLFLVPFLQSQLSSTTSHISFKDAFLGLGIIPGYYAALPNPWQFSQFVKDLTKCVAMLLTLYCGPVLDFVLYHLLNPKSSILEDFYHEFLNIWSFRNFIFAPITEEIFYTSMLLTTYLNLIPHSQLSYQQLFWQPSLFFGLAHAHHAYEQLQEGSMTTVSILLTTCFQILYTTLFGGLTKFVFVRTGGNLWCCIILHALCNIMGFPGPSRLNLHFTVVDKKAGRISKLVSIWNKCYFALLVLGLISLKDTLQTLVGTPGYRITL
Env fusion inh – HIV envelope-mediated fusion inhibition. actives 1.1% (n = 360,000). HeLa-JRFL Env/CEM21 cell fusion, luciferase. inhibition, % at 12.3 µM;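 active = mean replicate inhibition score of at least 50 and every replicate individually at or above 50; inconclusive = only one of the two criteria met; inactive = mean below 50 and not all replicates reaching 50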;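 note: 0% = plate neutral controls and 100% = maraviroc near 300 nM; one replicate is shown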
MT1-MMP act inh – blocks activation of human MT1-MMP | actives 0.061% (n = 360,000) | P50281 | AID 651647 | HT1080 RFP-PRO-GFP cells, GFP/RFP ratio fluorescence, overnight; percent of plate control window, DMSO zero | GFP/RFP ratio change, % at 20 µM;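 active = GFP/RFP ratio change of at least 30% with cell ATP level not reduced by more than half and red fluorescence within 50% of control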; note: strong numbers were not always called active
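Test system: HT1080 RFP-PRO-GFP cells; Benchmarks: DMSO and RFP-L50D-GFP cell wells; Timing: cells overnight before dosing, compound overnight, 37 °C, 5% CO2; Compound: one 20 µM compound dose with 1% DMSO; Read-out: GFP/RFP fluorescence ratio.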
CSC inhib – blocks cancer stem cells; inhibition, % at 7.5 µM; actives 1.1% (n = 300,000); cancer stem cell-like cells viability, luminescence;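 active = mean at 75% or more and at least half the replicates too; inconclusive = mean and replicates disagree; tested in HMLE shEcad cells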;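 note: 0% = median of negative and 100% = median of positive control wells; the first replicate is given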
PABP polyA inh – PABP-poly(A) binding inhibition; PABP-poly(A) RNA binding, fluorescence polarization; actives 1% (n = 290,000); P11940; inhibition, % at 35 µM; AID 2014;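 active = 50% or more with normal probe brightness, or confirmed in later tests; inconclusive = above 50% with abnormal brightness, or retests that disagree; inactive = below 50% or failed in later tests; about a fifth of its hits are not listed in these tables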;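 note: calls also rest on retests at 20 µM and on dose response follow-up; controls were probe without protein and protein plus probe with vehicle; some compounds called inactive have numbers as strong as hits; many hits fall short of the cut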
eIF4H inh retest – also measured in eIF4H inh; calls as there; inhibition, %; compound at 20 µM; confirmation average;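 mean of two retest wells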
PABP polyA inh retest – also measured in PABP polyA inh; calls as there; inhibition, %; compound at 20 µM; confirmation repeats;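 mean of two retest wells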
MT1-MMP act inh RFP – also measured in MT1-MMP act inh; calls as there; RFP signal change, %; measured here: RFP expression control read;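 0 = vehicle wells; hits needed this value within 50% of zero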
Numbers without * were called inactive; i = inactive; u = inconclusive; x = not tested or not shown.

SMILES	UUG fidelity	eIF4H inh	Rce1 inhib	Env fusion inh	MT1-MMP act inh	MT1-MMP act inh RFP	CSC inhib	PABP polyA inh	others
CC(C)c1ccc(C(=O)N2CCCCC2c2cc(C(=O)Nc3ccncc3)no2)cc1 (stereo unspecified)	-8.1	x	x	-3.0	7.7	-0.3	x	x
C/C(=N\NC(=O)COc1ccc(C(C)(C)C)cc1)c1ccccc1	-5.8	5.7	i	7.2	4.0	-0.7	2.8	-11.6
CNC(=S)N1CCN(C(c2ccccc2)c2ccccc2)CC1	x	-8.3	i	6.2	-2.9	1.5	-8.5	10.9
CCC(NC(=O)C1CCCC1)c1ccccc1 (stereo unspecified)	-3.5	x	i	4.1	0.2	6.0	-1.4	x
O=C(NCc1cc2ccccc2[nH]1)c1ccccc1F	0.1	-4.2	i	4.1	-6.9	3.7	4.8	-10.7
O=C(Nc1ccc(Cl)cc1)c1csc([C@@H]2O[C@H](CO)[C@@H](O)[C@H]2O)n1	-17.7	x	x	5.9	0.8	-13.9	x	x
CC(=O)c1c(C)[nH]c(C(=O)Nc2cc(S(=O)(=O)N(C)C)ccc2C)c1C	x	9.9	i	2.7	2.4	-0.4	-16.4	7.0
Cc1c(CCC(=O)O)c(=O)oc2cc(OCc3ccccc3F)ccc12	-22.2	-4.3	i	-55.2	-0.5	2.3	-4.0	1.6
Cc1ccc(CNC(=O)C2CCC(=O)N(Cc3ccccc3F)C2)s1 (stereo unspecified)	-17.4	7.8	i	-9.8	-4.2	-0.9	-1.8	-0.4
N#C/C(=C\c1ccc2c(c1)OCCO2)C(=O)Nc1nccs1	-14.8	-1.8	i	2.7	-4.1	-1.1	-2.1	4.8
CNC(=O)c1cc(OCC(F)(F)F)ccc1OCC(F)(F)F	x	-11.2	i	-2.1	-9.1	-1.6	-1.9	0.4
CCCNC(=O)Nc1ccc(F)c(Cl)c1	x	-4.8	i	12.6	-10.2	-4.2	-4.4	-3.1
CCOc1ccccc1NC(=O)c1cccc(NC(=O)CC(c2ccccc2)c2ccccc2)c1	-8.7	-6.0	i	x	-2.0	-12.3	27.5	-10.7
FC(F)(F)COc1cc(-c2nnc(SCc3ccccc3)n2Cc2ccco2)cc(OCC(F)(F)F)n1	x	0.2	i	50.7	-10.7	-16.8	17.8	2.8
Cc1ccc(N/C=C(\C#N)c2ccc(OCCCF)cc2)cc1	-9.8	3.2	i	-28.8	-2.5	3.9	7.1	-2.0
C=CCn1c(SCC(C)=O)nnc1-c1ccc2ncccc2c1	-12.0	-7.4	i	8.5	-2.2	2.9	-5.2	-7.7
CN(C)CCCNC(=S)Nc1ccc(-c2ccccc2)cc1	-13.4	1.6	x	0.1	1.7	1.9	-20.0	-7.0
CCOc1ccc(C(=O)Nc2nccs2)cc1[N+](=O)[O-]	x	-2.6	x	-36.9	2.0	-2.8	5.9	-16.2
Cc1cccc(N2CCN(C(=O)c3ccc(NS(=O)(=O)c4c(C)noc4C)cc3)CC2)c1C	-9.2	-0.9	i	-4.3	-2.4	-2.1	7.9	8.5
COC(=O)c1ccc(Nc2nc(-c3ccncc3)nc3ccccc23)cc1	-19.3	-26.8	i	15.0	-0.9	-0.5	3.3	-31.2
Cc1cccc(C)c1OCC(=O)N/N=C/c1cc2c(cc1[N+](=O)[O-])OCO2	0.0	-1.5	i	x	-3.7	-1.9	-0.7	16.2
O=C(Oc1ccc2cc(Br)ccc2c1)c1cccnc1	-6.0	-9.6	i	x	-0.4	0.0	6.5	5.4
CCS(=O)(=O)N1CCCC(C(=O)NCCCN(C)Cc2ccccc2)C1 (stereo unspecified)	-13.1	-7.8	i	x	4.4	4.3	-5.9	1.4
CCCC1=NN2C(=N)/C(=C\c3ccc(SCc4ccco4)o3)C(=O)N=C2S1	-0.9	u	i	x	-65.5	74.5	20.2	u
Cc1noc(C)c1CCC(=O)Nc1cc(Cl)ccc1C(=O)O	-15.2	x	x	-3.2	-0.3	-0.2	x	x
O=C(CN1CCN(c2cccc(Cl)c2)CC1)NC1CCCc2ccccc21 (stereo unspecified)	-4.9	12.1	i	11.2	-2.6	-7.1	39.3	-5.9
COc1ccc(CNC(=O)Cc2c(C(=O)O)[nH]c3ccccc23)c(OC)c1	-14.3	8.0	i	-9.5	0.1	3.1	1.9	-4.0
Cc1cccn2c(=O)c3cc(C#N)c(=NC(=O)c4cccs4)n(CC(C)C)c3nc12	x	68.7	i	-16.0	9.6	-0.9	2.8	32.4	eIF4H inh retest=2.1;PABP polyA inh retest=47.1
COc1cn(-c2ccccc2)nc1C(=O)NCc1ccc(C)cc1	13.9	1.9	i	24.2	-2.1	0.8	2.3	-0.6
O=C(Nc1nnc(SCc2ccc(Cl)cc2)s1)C1CC(=O)N(Cc2ccccc2)C1 (stereo unspecified)	-14.0	3.8	i	2.9	2.9	2.8	x	2.3
COc1cccc(NC(=S)N(Cc2ccccn2)Cc2ccccc2Cl)c1	-28.9	4.3	i	-5.2	-2.9	-2.9	7.0	13.8
CN(C)CCNC(=O)Cn1c(=O)c2cccn2c2ccc(F)cc21	-8.9	0.6	i	-4.7	2.6	5.1	-7.0	2.3
Cc1nn(C)c(Oc2cccc(Cl)c2)c1C(=O)Nc1ccc(F)cc1	-0.8	-3.6	i	-14.1	-1.9	-4.3	x	0.6
O=C(CCCC(=O)OCC(=O)c1ccc(Cl)cc1)NC1CCCCC1	-9.5	6.4	i	x	x	x	-4.4	-1.1
CCC(=O)c1cc(F)c(N2CCN(C(=O)Cc3ccccc3)CC2)cc1C	-5.4	-7.3	i	x	3.6	-8.3	8.0	-12.6
CCN(C#N)c1nc(N(C)C)nc(N(C)C)n1	-22.7	-0.5	i	-19.4	-2.8	2.5	5.8	5.8
COc1ccc(/C=C2/Sc3ccc(C(=O)NCCN4CCCCCC4)cc3NC2=O)cc1	-22.5	-15.3	i	4.3	6.2	0.7	-11.9	-44.8
CC(=O)NS(=O)(=O)c1ccc(NC(=O)COc2ccc(C(=O)c3ccccc3)cc2)cc1	5.7	-3.5	i	x	-1.1	1.2	12.2	0.8
CN(CCOc1ccccc1)C(=O)c1cc(S(=O)(=O)N2CCCCC2)ccc1Cl	-8.5	x	i	x	0.8	-6.6	-5.3	x
COc1ccc(S(=O)(=O)N2CCCCCC2)cc1C(=O)N1CCCCC1	-3.0	-6.1	i	4.8	0.2	2.1	-1.7	3.1
CON1C(=O)C(=O)N(OC)C(C)(C)C1C (stereo unspecified)	-13.1	17.4	i	-27.3	5.3	-0.7	0.1	-6.5
O=C(CN1CCOCC1)Nc1ccccc1C(=O)Nc1ccccc1	-8.0	12.0	i	7.7	1.7	3.3	x	-5.0
COCCCNC(=O)c1cccc2c(-c3ccc(O)c(OC)c3)coc12	-17.5	x	x	-150.6	11.3	6.2	x	x
COc1cccc(NC(=O)COC(=O)c2cc(=O)c3ccccc3o2)c1	-4.2	x	x	-3.5	0.1	3.5	x	x
O=C(NCc1ccco1)/C(=C\c1cccnc1)NC(=O)c1ccccc1F	-15.7	14.2	i	x	-2.7	1.3	5.2	7.4
CCCC(=O)Nc1cc(C(=O)N(C)CC(OC)OC)ccc1S(=O)(=O)c1ccc(C)cc1	-5.7	2.0	i	-1.9	-0.4	0.4	x	-6.1
COc1cc(CN(C(=O)c2cc3ccccc3oc2=O)C2CCS(=O)(=O)C2)cc(OC)c1OC (stereo unspecified)	-14.0	5.1	i	-2.3	-1.8	2.1	x	3.4
C=C[C@]1(C)C[C@H]1[C@H](NP(=O)(c1ccccc1)c1ccccc1)c1ccccc1	-20.1	-2.2	x	22.5	3.0	-6.2	-5.2	6.4
CN1C(=O)/C(=N\OC(=O)c2ccccc2Cl)c2ccccc21	x	-14.4	i	3.4	6.3	8.2	2.1	-6.6
CC(C)n1nnnc1SCC(=O)c1ccc2c(c1)OCCO2	-38.4	1.1	i	-17.7	0.6	2.3	2.5	14.8
CCn1c(=O)c(=O)[nH]c2cc(C(=O)NC3CCCc4ccccc43)ccc21 (stereo unspecified)	-6.5	19.1	x	29.7	31.3*	10.9*	47.7	18.1
Cc1nn(CCCC(=O)Nc2ccc(Br)cc2F)c(C)c1[N+](=O)[O-]	x	-11.3	i	12.6	7.7	-1.5	-7.7	5.5
CCOC(=O)N1CCN(C(=O)c2ccc3c(c2)N(Cc2ccc(C)cc2)CCS3)CC1	x	-14.8	i	-25.3	-5.4	-15.0	31.4	-6.1
O=C(NCCCN1CCOCC1)C(=O)NCC1OCCN1S(=O)(=O)c1cc(F)ccc1F (stereo unspecified)	-8.8	-3.8	i	x	-0.1	4.6	-7.8	3.6
COc1ccc(-c2cnc(N)nc2-c2ccc(OC)cc2O)cc1	-10.5	0.9	i	u	-17.6	-13.5	17.7	5.1
CC(=O)c1c(C)nc(-c2ccc(OCC(=O)Nc3cccc(C)c3C)cc2)n1O	-7.0	-3.9	i	-9.6	3.7	0.1	-11.5	-2.6
Cc1ccc(-c2cc(C(F)F)n3ncc(C(=O)N4CCCc5ccccc54)c3n2)cc1	-10.8	-5.0	i	-11.4	-2.8	-0.7	-18.3	4.0
CCCC(C)NC(=O)COC(=O)c1cccc(NS(C)(=O)=O)c1 (stereo unspecified)	0.1	-3.1	x	3.6	1.6	5.7	-6.3	5.7
CC(O)CNC(=O)C1CCN(Cc2ccc(OCc3ccccc3)cc2)CC1 (stereo unspecified)	3.2	-3.7	i	-17.9	-4.7	-10.0	x	1.3
CCOc1ccc(-n2c(C)c(C(=O)O)c3cc(OC)ccc32)cc1	-15.5	-7.8	i	5.2	-1.8	-3.9	13.2	0.6

The listing continues.
SMILES	UUG fidelity	eIF4H inh	Rce1 inhib	Env fusion inh	MT1-MMP act inh	MT1-MMP act inh RFP	CSC inhib	PABP polyA inh	others
Cc1ccc2cc(CN(CCCN3CCOCC3)C(=O)NC3CCCCC3)c(=O)[nH]c2c1C	-0.8	x	i	-95.7	-20.9	-5.8	18.7	x
O=C(/C=N/O)NCc1cccnc1	-9.2	-0.3	i	-6.7	-1.2	-0.4	-18.6	-4.0
COc1ccc(CCNC(=O)c2cc(C)oc2C)cc1OC	-6.5	4.6	i	7.8	0.6	3.0	-11.3	10.3
c1ccc(-c2ccc3c(c2)NCCN3)cc1	-3.9	4.4	i	-34.6	3.8	-1.6	-1.6	23.8
CCCCCCn1c(CN2CCC(C)CC2)nc2c1c(=O)n(C)c(=O)n2C	-9.8	1.9	i	x	-4.8	-0.6	0.2	-1.1
CCC(C)NC(=O)C1CCN(S(=O)(=O)c2cccs2)CC1 (stereo unspecified)	x	4.6	i	-71.4	-3.1	5.1	-2.8	-1.3
Cc1ccc2c(c1)CCCN2C(=O)c1cccs1	-5.0	-2.1	i	13.8	6.1	0.8	-2.4	1.9

Structural class: the entries above with a thiophene ring, fused or not
SMILES	UUG fidelity	eIF4H inh	Rce1 inhib	Env fusion inh	MT1-MMP act inh	MT1-MMP act inh RFP	CSC inhib	PABP polyA inh	others
Cc1ccc(CNC(=O)C2CCC(=O)N(Cc3ccccc3F)C2)s1 (stereo unspecified)	-17.4	7.8	i	-9.8	-4.2	-0.9	-1.8	-0.4
Cc1cccn2c(=O)c3cc(C#N)c(=NC(=O)c4cccs4)n(CC(C)C)c3nc12	x	68.7	i	-16.0	9.6	-0.9	2.8	32.4	eIF4H inh retest=2.1;PABP polyA inh retest=47.1
CCC(C)NC(=O)C1CCN(S(=O)(=O)c2cccs2)CC1 (stereo unspecified)	x	4.6	i	-71.4	-3.1	5.1	-2.8	-1.3
Cc1ccc2c(c1)CCCN2C(=O)c1cccs1	-5.0	-2.1	i	13.8	6.1	0.8	-2.4	1.9
